INS promoter inh: inhibitors of insulin promoter-driven GFP, primary screen, imaging, TRM-6 cells (human fetal islet line), eGFP reporter, cell count. inhibition, % at 2 µM. reporter expression induced with tamoxifen. 0.9% of 130,000 active. AID 1273, 2008;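 active = inhibition above the mean plus 3 SD, with well images judged a real hit on visual review, cut at about 60% in these data, passing the limit was not always enough; inconclusive = inhibition over the cutoff but images rejected on review; inactive = inhibition not above the cutoff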
GALR2 ag: GALR2 receptor agonists, primary screen, cell-based. Galanin receptor type 2 (Homo sapiens), O43603. GALR2-expressing cells, agonist activation read-out. activation, %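 (tested at 5 µM)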. 0.48% of 140,000 active. AID 803, 2007;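 active = above mean plus 3 SD of all compounds, about 5% in these data, not always enough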;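 note: 0% = vehicle buffer wells and 100% = reference agonist at full effect; tested in CHO reporter cells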
HSV replic up: enhancers of HSV replication in host cells, fold increase, host cell viability. HSV replication augmentation in cells. maximum fold increase. 0.005% of 220,000 active. AID 1956, 2009;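 active = peak rise of 1.5-fold or more in the series; inconclusive = self-fluorescent or not available for retest; tested in PC3 cells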;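 note: first round at 10 µM; read as green reporter fluorescence; hits show the peak of a series up to 25 µM; 1 = signal of infected wells without compound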
RGS16-Gao: modulators of RGS16 binding to Galphao, primary screen, biochemical, human proteins, multiplexed bead flow cytometry | bead-based flow cytometry RGS16-Galphao binding, fluorescence; actives lie on both sides | Regulator of G-protein signaling 16 (Homo sapiens) + Guanine nucleotide-binding protein … | 0.38% of 220,000 active | binding response (% of control), % at 10 µM;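 active = below 25% or above 175%, edge rows of some plates excepted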;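 note: Galphao activated by GDP with aluminum fluoride before binding; 100% = wells without compound and 0% = beads without RGS; some results beyond the cut were filed as inactive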
PKD1 inh: inhibitors of human PKD1 kinase, biochemical, fluorescence polarization. PKD1 kinase fluorescence polarization assay. 0.056% of 200,000 active. inhibition, %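 (about 10 µM by stock and volumes)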. AID 797, 2007;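 active = inhibition of 50% or more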;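 note: controls were vehicle for no effect and a reference inhibitor for full effect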
Target sequence (Q15139 whole entry, looked up): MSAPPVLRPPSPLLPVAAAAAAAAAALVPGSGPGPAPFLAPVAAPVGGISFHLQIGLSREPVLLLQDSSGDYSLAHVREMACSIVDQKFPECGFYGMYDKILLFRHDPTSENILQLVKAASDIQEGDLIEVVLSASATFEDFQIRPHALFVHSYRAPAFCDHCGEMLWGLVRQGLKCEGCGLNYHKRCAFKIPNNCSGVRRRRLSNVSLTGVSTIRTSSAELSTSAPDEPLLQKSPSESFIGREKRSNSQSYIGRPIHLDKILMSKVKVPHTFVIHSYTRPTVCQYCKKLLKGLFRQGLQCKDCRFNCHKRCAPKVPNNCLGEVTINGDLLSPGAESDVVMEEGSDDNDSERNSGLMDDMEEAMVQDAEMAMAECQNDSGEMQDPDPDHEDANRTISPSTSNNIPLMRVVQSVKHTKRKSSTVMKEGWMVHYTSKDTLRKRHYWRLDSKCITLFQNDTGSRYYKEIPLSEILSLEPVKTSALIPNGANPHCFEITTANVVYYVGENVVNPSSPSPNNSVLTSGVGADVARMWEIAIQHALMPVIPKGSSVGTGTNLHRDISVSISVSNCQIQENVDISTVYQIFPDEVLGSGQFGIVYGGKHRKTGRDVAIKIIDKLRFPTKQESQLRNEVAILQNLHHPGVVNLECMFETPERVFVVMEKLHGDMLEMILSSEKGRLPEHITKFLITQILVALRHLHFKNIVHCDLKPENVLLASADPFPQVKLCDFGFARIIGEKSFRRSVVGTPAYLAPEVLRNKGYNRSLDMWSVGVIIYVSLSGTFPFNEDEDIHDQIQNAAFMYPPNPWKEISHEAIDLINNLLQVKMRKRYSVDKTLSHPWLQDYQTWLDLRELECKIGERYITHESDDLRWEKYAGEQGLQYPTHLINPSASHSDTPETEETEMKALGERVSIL
INS promoter inh cell count: recorded beside INS promoter inh, whose call it bears; normalized cell count, %; measured here: cell count, toxicity; reference of the scale not given here;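 cells exposed to compound for 48 h; stained nuclei by imaging scaled within each plate; lower means fewer cells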
HSV replic up primary fold: second read-out of HSV replic up, no call of its own (marks repeat the call); fold increase; compound at 10 µM; measured here: primary screen fold increase 10 uM; tested in PC3 cells;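 GFP signal in the first replicate; 1 = infected wells without compound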
Starred values were filed as active, the others as inactive; i = inactive; u = inconclusive; x = no result given.

Fields: INS promoter inh | INS promoter inh cell count | GALR2 ag | HSV replic up | HSV replic up primary fold | RGS16-Gao | PKD1 inh
1	CCCCNS(=O)(=O)c1ccc(S(=O)(=O)NCc2ccncc2)cc1
 : -37 | 86 | -1.7 | i | 0.93 | 111 | 0
2	CN1N=C(C(=O)N2CCCC(C(=O)c3cccc(C(F)(F)F)c3)C2)CCC1=O (configuration not stated)
 : x | x | x | i | 1.1 | 97 | 2
3	CCC(C)(NC(=O)c1ccccn1)C(=O)NC1CCCC1 (configuration not stated)
 : x | x | x | i | 0.95 | 106 | -3
4	COc1ccc2c(/C=N/NS(=O)(=O)c3ccc(C)cc3)c[nH]c2c1
 : x | x | x | i | 0.92 | 103 | x
5	COc1ccc(CN(Cc2ccc(C(=O)O)cc2)C(=S)Nc2cc(C)cc(C)c2)cc1OC
 : x | x | x | i | 1 | 102 | -2
6	O=C(Nc1ccccc1NC(=O)c1csnn1)c1csnn1
 : x | x | x | i | 1.1 | 110 | 2
7	COc1ccc(S(=O)(=O)N(C(=O)C(C)C)c2ccc3oc(=O)sc3c2)cc1
 : 50 | 39 | -1.4 | i | 1.1 | 95 | 10
8	CCC(C)NC(=O)/C=C/c1cccs1 (configuration not stated)
 : 14 | 122 | -1.1 | i | 0.98 | 101 | -2
9	CCOC(=O)CC(c1ccc([N+](=O)[O-])cc1)n1c(C)ccc1C (configuration not stated)
 : x | x | x | i | 0.9 | 100 | -4
10	O=C(O)c1ccc(Cn2cnc3scc(-c4ccccc4)c3c2=O)cc1
 : -76 | 118 | x | i | 1 | 103 | 9
11	CN(C)S(=O)(=O)c1cc(C(=O)NCc2ccccc2)c(Cl)cc1Cl
 : -76 | 116 | x | i | 0.97 | 99 | 2
12	COc1ccc(C(=O)NC2CCN(C(=S)Nc3ccccc3C)CC2)cc1
 : x | x | x | i | 1.1 | 101 | -8
13	CSc1nc2sc3c(c2c(=O)[nH]1)CCC(C)C3 (configuration not stated)
 : 18 | 128 | -1.6 | i | 0.98 | 88 | 2
14	COc1ccc(C2C(C(=O)Nc3cccc(C)n3)c3ccccc3C(=O)N2C)cc1OC (configuration not stated)
 : -79 | 188 | -2.1 | i | 0.96 | 104 | -4
15	COc1ccc(-n2nc(C(=O)NCC(=O)N3CCN(c4ccccn4)CC3)c3ccccc3c2=O)cc1Cl
 : -35 | 127 | x | i | 1 | 100 | -3
16	COc1ccccc1C(=O)OCC(=O)Nc1ccc(Cl)cn1
 : -89 | 175 | x | i | 0.97 | 96 | 0
17	Cn1nnc(NC(=S)NC(=O)c2ccccc2)n1
 : x | x | x | i | 0.92 | 111 | x
18	O=C1C(Cc2ccccc2)C(c2ccccc2)N1c1ccccc1 (configuration not stated)
 : x | x | -0.8 | i | 0.92 | 103 | 8
19	Cc1ccc(S(=O)(=O)NC(C(=O)Oc2ccc3c(C(F)(F)F)cc(=O)oc3c2)c2ccccc2)cc1 (configuration not stated)
 : 26 | 139 | -0.1 | u | x | 95 | 18
20	COc1ccc(NC(=O)c2ncn[nH]2)cc1
 : 22 | 104 | -3.3 | i | 1 | 102 | -3
21	O=C(NCCN1CCCC1)c1ccccc1Cl
 : x | x | x | i | 0.97 | 99 | -11
22	Nc1nonc1-n1nnc(C(=O)N/N=C/c2ccccc2)c1CSc1ccccc1
 : x | x | x | i | 0.91 | 98 | x
23	COCC(=O)N1CCC(Oc2ccc(C(=O)NCc3cnc(C)cn3)cc2)CC1
 : x | x | x | i | 1.1 | 100 | -8
24	O=C(Nc1cc(-c2ccccc2)[nH]n1)c1ccccc1
 : x | x | x | i | 0.78 | 91 | x
25	Nc1nncn1C(=O)CCCN1C(=O)c2ccccc2C1=O
 : -269 | 103 | -2.3 | i | 0.79 | 103 | -9
26	COc1cc(/C=c2\sc3n(c2=O)CCCN=3)ccc1O
 : 9 | 107 | -2.1 | i | 1 | 100 | -8
27	CC1CC(C)CN(C(=O)Cc2c(C(=O)O)[nH]c3ccc(Cl)cc23)C1 (configuration not stated)
 : -80 | 77 | x | i | 1 | 104 | 3
28	COCC1CCN(Cc2cn[nH]c2-c2cc(OC)c(OC)c(OC)c2)CC1
 : x | x | x | i | 1.2 | 94 | -4
29	O=S(=O)(Nc1ccn(-c2ccccc2)n1)c1ccc(Br)cc1
 : -8 | 61 | -0.9 | i | 0.92 | 81 | -5
30	Cc1nc(N2CCOCC2)[nH]c(=O)c1[N+](=O)[O-]
 : x | x | x | i | 1.3 | 102 | x
31	Cc1ccc(S(=O)(=O)NCc2ccc(C(=O)NCCCN3CCN(C)CC3)cc2)cc1
 : x | x | -0.9 | i | 1 | 139 | 0
32	COCCCNC1=C(Cl)C(=O)c2ccccc2C1=O
 : x | x | x | i | 0.99 | 105 | x
33	Nc1ccc(C(=O)OCC(=O)Nc2ccc([N+](=O)[O-])cc2C(F)(F)F)cc1
 : x | x | -1.3 | i | 0.96 | 109 | 1
34	Cc1ccc(C(=O)NNC(=O)C2CCN(S(=O)(=O)c3ccc(C)cc3)CC2)cc1
 : x | x | x | i | 0.96 | 97 | x
35	CSc1ccc(CN(C)CC(=O)NC(=O)NC(C)(C)C)cc1
 : x | x | -2.1 | i | 0.98 | 106 | -1
36	Cc1nc(-c2coc3cc(O)c(C)cc3c2=O)cs1
 : 6 | 148 | -2.4 | i | 0.99 | 107 | -4
37	O=C(NCc1cccnc1)C(=O)Nc1nc(-c2ccccc2)cs1
 : x | x | x | i | 0.83 | 84 | x
38	Cc1ccc(NC(=O)Cn2cccc2)c(C)c1
 : 40 | 92 | -1.5 | i | 1.1 | 101 | -2
39	Cc1ccc(-c2nc(CSCC(=O)N3CCN(C(=O)c4ccco4)CC3)c(C)o2)cc1
 : x | x | -2.2 | i | 1.3 | 100 | 3
40	CCOc1cccc(OCCOc2ccc(C(=O)c3ccccc3)cc2)c1
 : 27 | 79 | -0.3 | i | 0.91 | 101 | -9
41	Cc1cc(C)c2cc(C#N)c(SCC(=O)Nc3ccc4c(c3)OCO4)nc2c1
 : x | x | x | u | x | 100 | x
42	CCOc1cc(N2CCOCC2)c(OCC)cc1NC(=O)CN1C(=O)NC2(CCCCCCC2)C1=O
 : -93 | 105 | x | i | 0.92 | 101 | -2
43	COc1ccc(C(=O)N=S2CCN(C(=O)c3ccc(Cl)cc3)CC2)cc1
 : x | x | x | i | 1.1 | 110 | x
44	C/C(=N\S(=O)(=O)c1ccc(C)cc1)N(C)C
 : x | x | x | i | 0.95 | 106 | x
45	O=C(Nc1ccc(Br)cc1)c1ccco1
 : i | 36 | -2.5 | i | 1.1 | 91 | -3
46	COC(=O)C1=NNC2(c3ccc(C)cc3)C(=O)N(c3ccc(C)cc3)C(=O)C12 (configuration not stated)
 : -36 | 105 | x | i | 0.96 | 96 | -1
47	CCCOc1ccc(CC(CC(=O)O)(C(=O)O)C(=O)O)cc1
 : x | x | -0.8 | i | 0.93 | 99 | 17
48	O=C(NCc1ccncc1)c1cccc(F)c1
 : -29 | 128 | -0.1 | i | 0.96 | 102 | -5
49	NS(=O)(=O)c1ccc(N/N=C/c2ccc(C(=O)O)cc2)c([N+](=O)[O-])c1
 : x | x | x | i | 0.94 | 98 | x
50	Cc1c(C)n(CCc2c[nH]c3ccccc23)ccc1=O
 : x | x | x | i | 0.87 | 96 | -6
51	CCc1cccc(NS(=O)(=O)c2c(C)n[nH]c2C)c1
 : 9 | 112 | -1.1 | i | 0.99 | 102 | -2
52	CC(C)(C)n1nc2c(c1NC(=O)COc1ccc(Cl)cc1)CS(=O)(=O)C2
 : -75 | 161 | x | i | 0.83 | 107 | -5
53	CCn1c(C(O)c2ccccc2)nc2ccccc21 (configuration not stated)
 : x | x | -3.3 | i | 0.91 | 100 | -5
54	Cc1[nH]c2ccccc2c1N=Nc1c(C)n(C)n(-c2ccccc2)c1=O
 : x | x | x | i | 1.1 | 100 | 4
55	CCCC(=O)Nc1ccc(Br)cn1
 : -49 | 113 | -2.1 | i | 0.99 | 98 | -1
56	Cc1ccc(-c2cc(C(=O)NCc3cccs3)no2)cc1
 : 24 | 136 | -2.0 | i | 0.88 | 76 | 4
57	Cc1c(C(=O)N2CCCc3ccccc32)oc2ccc(S(=O)(=O)N3CCOCC3)cc12
 : x | x | 0.0 | i | 0.87 | 99 | 4
58	O=C(COC(=O)CCC(=O)c1ccc(Cl)cc1)NCC1CCCO1 (configuration not stated)
 : -16 | 94 | -0.5 | i | 1.1 | 36 | -2
59	COCCCNC(=O)C1CC(=O)N(c2ccc(C)cc2)C1 (configuration not stated)
 : x | x | -1.2 | i | 1 | 99 | 5
60	O=C(NC1CCCCC1)C1CC(=O)N(c2ccc(Cl)cc2)C1 (configuration not stated)
 : x | x | -1.8 | i | 0.96 | 99 | -13

Reprinted at random: 3 compounds from above, in no set order.
Fields: INS promoter inh | INS promoter inh cell count | GALR2 ag | HSV replic up | HSV replic up primary fold | RGS16-Gao | PKD1 inh
50	Cc1c(C)n(CCc2c[nH]c3ccccc23)ccc1=O
 : x | x | x | i | 0.87 | 96 | -6
48	O=C(NCc1ccncc1)c1cccc(F)c1
 : -29 | 128 | -0.1 | i | 0.96 | 102 | -5
58	O=C(COC(=O)CCC(=O)c1ccc(Cl)cc1)NCC1CCCO1 (configuration not stated)
 : -16 | 94 | -0.5 | i | 1.1 | 36 | -2

(cont.)
Fields: INS promoter inh | INS promoter inh cell count | GALR2 ag | HSV replic up | HSV replic up primary fold | RGS16-Gao | PKD1 inh
61	Cc1ccc(C)c(S(=O)(=O)Nc2ccccc2C(=O)Nc2cc(C)on2)c1
 : x | x | -2.0 | i | 0.9 | 110 | -11
62	Cc1ccc(S(=O)(=O)Nc2cccc(Oc3cnccn3)c2)cc1
 : -48 | 114 | x | i | 0.86 | 88 | -4
63	Cn1c(SCC(N)=O)nnc1-c1ccccc1
 : -14 | 95 | -1.2 | i | 0.9 | 115 | -8
64	O=[N+]([O-])c1ccccc1/C=N/NC1=NCCCCC1
 : x | x | -3.1 | i | 1 | 100 | -10
65	O=S(=O)(CC12C3C4C5C1C2C(Br)(C43)C51OCCO1)c1ccccc1 (configuration not stated)
 : 15 | 90 | -0.4 | i | 0.94 | 60 | -6
66	COC(=O)CC1C(=O)NCCN1C(=O)CSc1nnnn1-c1ccc(OC)cc1 (configuration not stated)
 : -25 | 90 | x | i | 1.1 | 83 | -8
67	O=C(Nc1ccc(OC(F)F)c(Cl)c1)C(c1ccccc1)c1ccccc1
 : x | x | -0.8 | i | 1 | 106 | 1
68	O=C(NCC(c1cccs1)N1CCOCC1)c1ccccc1NS(=O)(=O)c1ccc(Cl)c([N+](=O)[O-])c1 (configuration not stated)
 : x | x | 0.5 | i | 0.99 | 105 | -1
69	Cc1ccc(Nc2ccc(C(N)=O)cc2[N+](=O)[O-])cc1C
 : 31 | 131 | -2.2 | i | 0.93 | 106 | -2
70	C=CCC1(CC=C)CCCN1C(=O)CC1C(=O)NCCN1Cc1cccc(OC)c1OC (configuration not stated)
 : x | x | x | i | 0.96 | 108 | 5
71	O=C(O)c1ccc(Cl)c2c1C1C=CCC1C(c1ccccn1)N2 (configuration not stated)
 : x | x | -1.2 | i | 0.83 | 75 | 9
72	C=C1CC(C(=O)N/N=C/c2ccc(O)cc2)C1
 : -8 | 127 | -1.7 | i | 1.1 | 35 | 15
73	CC1CCCC(NC(=O)COC(=O)c2cc(S(=O)(=O)N3CCCCC3)ccc2N2CCOCC2)C1C (configuration not stated)
 : -23 | 69 | -0.7 | i | 0.96 | 105 | 48
74	C=CCCCCCCCCC(=O)NNC1=CC(=O)CC(C)(C)C1
 : 21 | 149 | 0.0 | i | 0.84 | 114 | -8

One compound at a time, as listed above. Screens in order: INS promoter inh, INS promoter inh cell count, GALR2 ag, HSV replic up, HSV replic up primary fold, RGS16-Gao, PKD1 inh
Cc1ccc(S(=O)(=O)Nc2cccc(Oc3cnccn3)c2)cc1 in the list: -48, 114, x, i, 0.86, 88, -4
C=C1CC(C(=O)N/N=C/c2ccc(O)cc2)C1 in the list: -8, 127, -1.7, i, 1.1, 35, 15
O=C(NCC(c1cccs1)N1CCOCC1)c1ccccc1NS(=O)(=O)c1ccc(Cl)c([N+](=O)[O-])c1 (configuration not stated) in the list: x, x, 0.5, i, 0.99, 105, -1
C=CCCCCCCCCC(=O)NNC1=CC(=O)CC(C)(C)C1 in the list: 21, 149, 0.0, i, 0.84, 114, -8
O=S(=O)(CC12C3C4C5C1C2C(Br)(C43)C51OCCO1)c1ccccc1 (configuration not stated) in the list: 15, 90, -0.4, i, 0.94, 60, -6
